# RVFV N-RNA inh: inhibitors of RVFV nucleoprotein–RNA binding, primary screen, biochemical, fluorescence polarization; P21700; % bound, % (concentration not given with the values); 20,000 compounds, 0.1% hits; RVFV N-RNA binding; hits give low values;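 active means between 0 and 58% in either replicate with normal brightness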;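 further: 100 nL library stock added to about 12 µL; 100% = protein and probe without compound and 0% = probe alone; numbers are from one replicate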
# Target sequence (P21700 whole entry, looked up): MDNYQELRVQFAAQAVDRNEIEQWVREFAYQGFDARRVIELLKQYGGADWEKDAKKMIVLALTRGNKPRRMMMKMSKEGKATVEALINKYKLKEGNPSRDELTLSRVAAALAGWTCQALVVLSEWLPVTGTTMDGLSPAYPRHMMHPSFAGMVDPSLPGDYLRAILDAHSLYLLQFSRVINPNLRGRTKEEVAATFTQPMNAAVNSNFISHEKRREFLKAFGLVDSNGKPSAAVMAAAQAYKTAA
# Starred values were filed as active, the others as inactive; & = joins results of further samples. A portion of the library. The share of hits here may be higher or lower than overall.
# Start of the data: the first 2 records, to show the layout:
SMILES,RVFV N-RNA inh
CC1(C)C(=O)N(CCN2CCC(C(=O)c3ccc(F)cc3)CC2)c2ccccc21,100
S=C1NCN(CC2CCCO2)CN1 (stereo unspecified),98

# Results (from the top)
SMILES,RVFV N-RNA inh
CC1(C)C(=O)N(CCN2CCC(C(=O)c3ccc(F)cc3)CC2)c2ccccc21,100
S=C1NCN(CC2CCCO2)CN1 (stereo unspecified),98
COC(=O)c1n[nH]nc1C(=O)OC,97
CCOC(=O)Cn1nc(C)c(NC(=O)c2ccc(OC)cc2)c1C,98
C/C=C(\C)CN(C)CCc1ccccn1,92
CN(C)S(=O)(=O)N(CC(=O)Nc1ccccc1C(=O)N1CCOCC1)c1ccccc1,109
CSc1cccc(NC(=O)CSc2ncn(-c3ccccc3)n2)c1,82
CN(c1ccccc1)n1c(-c2ccccc2)nc2ccccc2c1=O,93
CC(C)(C)c1cc2ncnc(NNC(=O)c3cccs3)c2s1,89
COC(=O)c1c(NC(=S)NCCn2cc(Br)cn2)sc2c1CCC2,93
Nc1ccc(-c2ccc(C(=O)O)s2)cn1,93
CCCCOc1ccccc1N1C(=O)CC(N2CCN(C(=O)OCC)CC2)C1=O (stereo unspecified),103
Cc1cc(C)c(OCC(O)Cn2cc(/C=N/O)c3ccccc32)c(C)c1 (stereo unspecified),100
Cc1ccc(NC(=O)CN2C(=O)CSCC2=O)cc1,99
CCOC(=O)C1C(=O)NC(N2CCc3ccccc32)=NC1c1ccccc1 (stereo unspecified),93
O=C(NCc1ccco1)C1CCC(C(=O)NCc2ccco2)CC1 (stereo unspecified),94
CCCCn1nnc(NC(=O)COc2ccc(Cl)c(C)c2)n1,103
CCCC(=O)Nc1c2c(nn1-c1ccccc1)CSC2,99
COc1ccc(S(=O)(=O)N2CCC(C(=O)Nc3ccccc3C(F)(F)F)CC2)cc1C,94
CCOc1ccc(-n2c(CN(CC)CC)nc3ccccc3c2=O)cc1,103
CN(C)c1cccc(C(=O)N2CCOCC2)c1,90
NC(=Nc1ccc(Br)cc1)c1ccccc1,96
Cc1ccc(CSc2ncnc3c2nnn3Cc2ccccc2)cc1,95
COc1cccc2sc(Nc3ccc(F)cc3)nc12,90
Cc1ccc(NC(=O)CC2S/C(=N\N=C\c3cccc(O)c3)NC2=O)cc1Cl (stereo unspecified),89
O=C(Nc1cccc(-c2nc3ccccc3[nH]2)c1)c1cccc(NC(=O)c2ccco2)c1,95
COc1cc(C=C(C#N)C#N)ccc1O,88
Cc1ccc(NC(=O)/C(C#N)=C/c2ccc[nH]2)c(C)c1,99
OC1CCC(C2CC3CCC2C3)CC1O (stereo unspecified),99
CC1CCc2cc(F)ccc2N1S(=O)(=O)c1ccc(NC(=O)COCC(=O)O)cc1 (stereo unspecified),109
Cc1sc2nc(SCC(=O)N3CCCCC3)[nH]c(=O)c2c1C,91
CN1CCC(N(C)C(=S)NC2CCCCC2)CC1,97
O=C(O)COc1ccc(C(=O)NCc2ccccc2)cc1,101
COc1ccc(CNC(=O)NC(=O)c2ccccc2)cc1,102
COc1cc2ncnc(NCc3cccc4c3OCO4)c2cc1OC,94
CC[C@]1(O)CC[C@H]2[C@@H]3CCC4=CCCC[C@@H]4[C@H]3CC[C@@]21C,95
O=C(CCN1C(=O)c2ccccc2C1=O)Oc1ccc(Cl)cc1,98
C=CCn1c(O)c(C=Nc2cccc(C)c2)c(=O)[nH]c1=S,91
O=C1OC2CC3CC(C2)CC1C3,94
COc1ccc(NC(=O)CSc2nc(C)c(C)c(=O)[nH]2)cc1OC,93
CN1C(=O)/C(=C/c2c(N3CCSCC3)nc3ccccn3c2=O)SC1=S,106
Cc1occc1C(=O)Nc1cnn(CCCC(=O)O)c1,96
CC(N)(Cc1ccc(O)cc1)C(=O)O (stereo unspecified),108
O=C1CC(C2CCCC=C2N2CCCCC2)C(=O)N1c1ccccc1 (stereo unspecified),92
CN1CCN(NC(=O)c2csc3ccccc23)CC1,111
COc1cc(NC(=S)NC(C)c2cn(C)nc2C)cc(OC)c1 (stereo unspecified),97
CC(C)n1c(NC(=O)Nc2ccccc2)c2ccccc2nc1=O,91
COc1ccc(OC)c(S(=O)(=O)NCC(c2ccc(F)cc2)N2CCN(C)CC2)c1 (stereo unspecified),96
O=C(c1cc(C(F)(F)F)cc(C(F)(F)F)c1)N1CCN(Cc2ccc3c(c2)OCO3)CC1,109
O=C(CN1C(=O)C2C3C=CC(C3)C2C1=O)Nc1ccccc1 (stereo unspecified),98
COc1ccc(CC(=O)N(Cc2ccccc2)C(C)C)cc1,93
OC1CCCCC1N1CCC(c2ccccc2)CC1 (stereo unspecified),94
c1ccc(Cn2nnc3c(Sc4nnc(-c5ccncc5)o4)ncnc32)cc1,98
Cc1cc2c(cc1C)C(=O)C(N1CCOCC1)=C(c1ccccc1)C2=O,99
Cc1sc2c(c1C)C(=O)/C(=C\Nc1ncccn1)S(=O)(=O)N2C,94
O=C1CSCC(=O)N1c1ccccn1,90
O=C(Nc1ccc(-c2nnc(-c3ccccc3)o2)cc1)C1CCCC1,92
O=C(Nc1ccc(Cl)cc1)NC(C(=O)O)c1ccccc1 (stereo unspecified),94
COC(=O)[C@@H](N)CCCN=C(N)N[N+](=O)[O-],93
CC1=CC2=C(C1=O)C(C(C)C)C(C#N)=C(N)S2 (stereo unspecified),92
# Later entries:
SMILES,RVFV N-RNA inh
CCN(CC)S(=O)(=O)c1ccc(N=Cc2c(O)n(-c3ccccc3)c(=O)[nH]c2=O)c(C)c1,98
CC(=O)Nc1cc(Cl)ccc1N1CCOCC1,95
O=C1CCCN1c1cccc2ccccc12,102
O=C(CCc1ccccc1)NN1C(=O)CCC1=O,98
COc1ccc(CCNC(=O)CSc2nnc3sc4ccccc4n23)cc1,97
O=c1c2c3nc4ccccc4nc3n(Cc3ccco3)c2ncn1Cc1ccco1,91
O=C1OC(N2CCOCC2)c2ccccc21 (stereo unspecified),97
O/N=C1\CCOc2ccc3ccccc3c21,94
NS(=O)(=O)c1ccc(CNC(=O)/C=C/c2ccccc2)cc1,92
Cc1ccc2[nH]c3c(c2c1)CCCC3C(=O)O (stereo unspecified),95
CN(Cc1nc(-c2ccccc2)no1)S(=O)(=O)c1ccccc1,91
CN(C(=O)CCC(=O)O)C1CCCCC1,93
COC(=O)c1cc(OC(=O)c2ccccc2Br)n(C)n1,89
CC(CC(=O)N1CCCCCC1)c1ccccc1 (stereo unspecified),96
CCOC(=O)c1ccccc1NC(=O)/C=C1/Nc2ccccc2NC1=O,95
CC1CC(Nc2ncnc3c2cnn3C)CC(C)(C)C1 (stereo unspecified),97
Cc1cccc(OCC(=O)NCC(C)C)c1C,101
CCc1ccc(NC(=O)CN(c2ccccc2)S(=O)(=O)N(C)C)cc1,93
COc1ccc(-c2cn3c(C)c(C(=O)N4CCCc5ccccc54)sc3n2)cc1,92
CCNC(=S)N1CCCCC1CO (stereo unspecified),83
O=C1c2cccc(OCC(=O)N3CCCc4ccccc43)c2CCN1Cc1cccnc1,97
C=CCN1C(=O)NC(NC(=O)c2ccccc2)(C(F)(F)F)C1=O (stereo unspecified),96
CCc1c(C#N)c(N)nc2sc(C(=O)OCc3ccccc3)c(N)c12,109
CCc1ccc(C=C2C(=O)N(C)C(=S)N(C)C2=O)cc1,96
CCOc1cc(S(=O)(=O)NCCOC)c(OCC)cc1C,102
CN(C)CC(c1ccc(O)cc1)C1(O)CCCCC1 (stereo unspecified),98
COC(=O)c1ccc(N2CCCC2=O)cc1,96
O=C1CSC(c2ccc3c(c2)OCO3)N1c1ccc(Cl)cc1 (stereo unspecified),88
COc1ccc(/C=C/C#N)cc1OC,88
COc1cc(OC)nc(NC(=O)CSc2nc3ccccc3s2)n1,95
COc1ccc(C(CNC(=O)Nc2ccccc2)N2CCN(C)CC2)cc1 (stereo unspecified),90
O=C(CS(=O)(=O)c1ccccc1)N1CCc2ccccc21,100
O=C(CN1CCN(S(=O)(=O)N2CCCCC2)CC1)Nc1ccc(Br)cc1,105
Cc1cc(/C=C2\C(=O)NC(=S)N(C)C2=O)c(C)n1C1CC1,85
c1ccc(C2CCC(NCCN3CCOCC3)CC2)cc1 (stereo unspecified),91
COc1c(C)cccc1C(=O)Nc1cc(Cl)ccc1N1CCOCC1,110
CCCCC(=O)Nc1ccc2c(c1)OCCO2,88
Cc1cccc(C(=O)Nc2nc3ccc(C)cc3c(=O)[nH]2)c1,97
Cc1cc(C)c2sc(N3CCN(C(=O)C(C)(C)C)CC3)nc2c1,95
Nc1cc(Cl)c(NC2=NCCN2)c(Cl)c1,94
Cc1ccc(CNC(=O)CSc2nc(N3CCCCC3)nc(N3CCCCC3)n2)cc1,95
Cc1cccc(CN2CCN(C(c3ccccc3)c3ccc(Cl)cc3)CC2)c1 (stereo unspecified),94
CC(=O)N(CCC(c1ccccc1)c1ccco1)Cc1ccc(F)cc1 (stereo unspecified),89
O=C(CSc1nc(-c2ccccc2)cc(=O)[nH]1)N1CCc2ccccc21,103
CC(N)=O,108
CN(C)S(=O)(=O)c1ccc2c(c1)/C(=C/c1cc3c([nH]1)CCCC3)C(=O)N2,109
CSc1nc(-c2ccc(C)cc2)nc(N)c1C#N,99
O=C1NCC2=C1C(c1ccc(Br)cc1)Nc1ccccc1N2 (stereo unspecified),90
OC(c1ccccc1)c1ccc(Br)cc1 (stereo unspecified),96
CCc1sc(C(=O)N2CCN(S(=O)(=O)c3ccccc3)CC2)cc1Br,94
CN(C)c1ccc(NC(=O)CC(C(=O)O)N(C)C)cc1 (stereo unspecified),94
Fc1ccc(-n2nnnc2-c2cnccc2C(F)(F)F)cc1,98
CC(Sc1ncn[nH]1)C(=O)Nc1ccccc1C#N (stereo unspecified),89
C=CCNC(=O)c1ccc2c(c1)OCO2,95
CC1=CC(C)C2(CO)COC(=C(C)C)C1C2C (stereo unspecified),94
COc1ccc(NC(=O)CSC2CCCCC2)cc1,90
O=C(NC1CCN(Cc2ccccc2)CC1)c1cccs1,99
CCOC(=O)COc1cc(OCC(=O)OCC)c2c3c(c(=O)oc2c1)CCC3,90
O=C(CN1CCOCC1)NCc1ccccc1,108
Cc1ccc(Oc2ccc(C(=O)O)cc2)cc1C,93
# Next section.
SMILES,RVFV N-RNA inh
COC(=O)C1=C(C)N(c2ccc(Br)cc2)C(=O)/C1=C\c1ccco1,100
COC(=O)CCS(=O)(=O)c1ccc(Oc2ccc(S(=O)(=O)CCC(=O)OC)cc2)cc1,99
CC(NC(=O)Nc1ccccc1O)(C(F)(F)F)C(F)(F)F,97
COc1cc(CNC(=O)CCCC/C=C/C(C)C)ccc1O,100
Cc1ccc(S(=O)(=O)N2CCCCC2)cc1C(=O)N1CCCC1,93
N#Cc1c2c(c(-c3ccco3)[nH]c1=O)CCCC2,93
c1ccc2c(c1)ncn1c3ccccc3nc21,95
N#C/C(=C\C=C\c1ccco1)C(N)=S,70
CNC(=O)c1sc(=S)n(-c2ccccc2)c1N,115
O=C1CSC(CC(=O)Nc2ccccc2)=N1,91
CC(C)(C)c1cccc(OCCON2C(=O)CCC2=O)c1,98
CCc1ccc(-n2nnc(C(=O)Nc3ccccc3)c2C)cc1,94
Nc1cc(=O)nc(SCC(=O)N2CCCc3ccccc32)n1-c1ccccc1,92
CC(C)(C)c1onc(OCP(=O)(O)O)c1CC(N)C(=O)O (stereo unspecified),94&100
O=C(Nc1cccnc1)c1cc2nc(C3CC3)cc(C(F)(F)F)n2n1,96
Nc1nc(N)c2nc(-c3ccccc3)c(N)nc2n1,99&96
NC(=O)c1ccccc1NC(=O)c1ccccc1,107
COC(=O)c1cccc(S(=O)(=O)N(C)C)c1,100
CCN(CC)CCNc1ccnc2cc(Cl)ccc12,102
O=C(NCC(c1ccco1)N1CCOCC1)c1ccccc1 (stereo unspecified),100

# Some of the entries so far, bar-delimited:
canonical_smiles | RVFV N-RNA inh
CN(C)c1ccc(NC(=O)CC(C(=O)O)N(C)C)cc1 (stereo unspecified) | 94
Fc1ccc(-n2nnnc2-c2cnccc2C(F)(F)F)cc1 | 98
CC(Sc1ncn[nH]1)C(=O)Nc1ccccc1C#N (stereo unspecified) | 89
C=CCNC(=O)c1ccc2c(c1)OCO2 | 95
CC1=CC(C)C2(CO)COC(=C(C)C)C1C2C (stereo unspecified) | 94
COc1ccc(NC(=O)CSC2CCCCC2)cc1 | 90
O=C(NC1CCN(Cc2ccccc2)CC1)c1cccs1 | 99
CCOC(=O)COc1cc(OCC(=O)OCC)c2c3c(c(=O)oc2c1)CCC3 | 90
O=C(CN1CCOCC1)NCc1ccccc1 | 108
Cc1ccc(Oc2ccc(C(=O)O)cc2)cc1C | 93
COC(=O)C1=C(C)N(c2ccc(Br)cc2)C(=O)/C1=C\c1ccco1 | 100
COC(=O)CCS(=O)(=O)c1ccc(Oc2ccc(S(=O)(=O)CCC(=O)OC)cc2)cc1 | 99
CC(NC(=O)Nc1ccccc1O)(C(F)(F)F)C(F)(F)F | 97
COc1cc(CNC(=O)CCCC/C=C/C(C)C)ccc1O | 100
Cc1ccc(S(=O)(=O)N2CCCCC2)cc1C(=O)N1CCCC1 | 93
N#Cc1c2c(c(-c3ccco3)[nH]c1=O)CCCC2 | 93
c1ccc2c(c1)ncn1c3ccccc3nc21 | 95
N#C/C(=C\C=C\c1ccco1)C(N)=S | 70
CNC(=O)c1sc(=S)n(-c2ccccc2)c1N | 115
O=C1CSC(CC(=O)Nc2ccccc2)=N1 | 91
CC(C)(C)c1cccc(OCCON2C(=O)CCC2=O)c1 | 98
CCc1ccc(-n2nnc(C(=O)Nc3ccccc3)c2C)cc1 | 94
Nc1cc(=O)nc(SCC(=O)N2CCCc3ccccc32)n1-c1ccccc1 | 92
CC(C)(C)c1onc(OCP(=O)(O)O)c1CC(N)C(=O)O (stereo unspecified) | 94&100
O=C(Nc1cccnc1)c1cc2nc(C3CC3)cc(C(F)(F)F)n2n1 | 96
Nc1nc(N)c2nc(-c3ccccc3)c(N)nc2n1 | 99&96
NC(=O)c1ccccc1NC(=O)c1ccccc1 | 107

# Compound activity (PubChem BioAssay)
